GLA inh pH 4.5: inhibitors of human alpha-galactosidase A at pH 4.5; P06280; purified enzyme, 4-MU-alpha-Gal fluorescence, pH 4.5; activity change, negative = inhibition, % at 105 µM; 230,000 tested, under 10 active; inconclusive = small, poorly fitted or top-dose-only inhibition, or a rising curve; inactive = flat fitted curve, though single readings scatter; no compound was filed as active;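 note: 0% = full activity with enzyme and -100% = basal without enzyme; dose as in the result columns while the protocol names 77 µM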
miR-21 reporter: miR-21 reporter, rising signal. 340,000 tested, under 10 active. Potency, µM (titrated, usually from 38.3 µM), inactives show top-dose reporter change, positive = more light. HeLa miR-21 FLuc reporter, luciferase, 48 h; active = well fitted rising curve with a large enough effect; inconclusive = small, poorly fitted or top-dose-only effect; inactive = no such curve, though single readings can be large or run the other way;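 note: % of control where 0% means no effect; miR-21 action dims this reporter so a rising signal means less miR-21 action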
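HeLa cells endogenously expressing miR-21, stably carrying CMV-driven firefly luciferase with a downstream miR-21 binding site, 2000 cells/well. Titrations up to approximately 40 uM, 48 hours; luciferase luminescence read.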
Rango release inh: inhibitors of RanGTP-induced Rango-importin beta complex dissociation. O95149+P62826. Biochemical FRET Rango-importin beta, RanGTP-induced dissociation. Potency, µM (top dose mostly 46.1 µM), inactives show top-dose activity change, negative = inhibition. 0.071% of 340,000 active. AID 540253; active means falling FRET ratio curve, often poorly fitted, with flat reads before Ran was added; inconclusive means other falling curves, or compound fluorescence or quenching; inactive means flat or rising ratio curve;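 note: potency is the fitted concentration of half-maximal effect; % of control where 0% means no effect; nearly all actives have a fitted effect of over 45% in size; -100% = wells without RanGTP and RCC1; the record marks most hits as doubtful in a second field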
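FRET read at 45 min, room temperature: inhibitors block the CFP/YFP signal rise when RanGTP (0.6 uM Ran, 2 mM GTP, 0.2 uM RCC1) frees Rango (0.1 uM) from importin beta (0.25 uM). Pre-read after 5 min compound exposure flags interference.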
Rango-impB inh: inhibitors of Rango-importin beta complex formation; 0.031% of 340,000 active; Potency, µM (series often up to 92.2 µM), inactives show at the top dose inhibition of complex formation; Rango CFP/YFP FRET sensor + importin beta, 45 min; active = rising FRET ratio curve, often small or poorly fitted; inconclusive = mostly compound fluorescence or quenching in the first reads; inactive = flat curves in all reads;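 note: potency is the fitted concentration of half-maximal effect; 0% = DMSO wells and 100% = buffer wells lacking importin beta; nearly all actives have a fitted effect of over 15% in size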
Target sequence (Q14974 whole entry, looked up): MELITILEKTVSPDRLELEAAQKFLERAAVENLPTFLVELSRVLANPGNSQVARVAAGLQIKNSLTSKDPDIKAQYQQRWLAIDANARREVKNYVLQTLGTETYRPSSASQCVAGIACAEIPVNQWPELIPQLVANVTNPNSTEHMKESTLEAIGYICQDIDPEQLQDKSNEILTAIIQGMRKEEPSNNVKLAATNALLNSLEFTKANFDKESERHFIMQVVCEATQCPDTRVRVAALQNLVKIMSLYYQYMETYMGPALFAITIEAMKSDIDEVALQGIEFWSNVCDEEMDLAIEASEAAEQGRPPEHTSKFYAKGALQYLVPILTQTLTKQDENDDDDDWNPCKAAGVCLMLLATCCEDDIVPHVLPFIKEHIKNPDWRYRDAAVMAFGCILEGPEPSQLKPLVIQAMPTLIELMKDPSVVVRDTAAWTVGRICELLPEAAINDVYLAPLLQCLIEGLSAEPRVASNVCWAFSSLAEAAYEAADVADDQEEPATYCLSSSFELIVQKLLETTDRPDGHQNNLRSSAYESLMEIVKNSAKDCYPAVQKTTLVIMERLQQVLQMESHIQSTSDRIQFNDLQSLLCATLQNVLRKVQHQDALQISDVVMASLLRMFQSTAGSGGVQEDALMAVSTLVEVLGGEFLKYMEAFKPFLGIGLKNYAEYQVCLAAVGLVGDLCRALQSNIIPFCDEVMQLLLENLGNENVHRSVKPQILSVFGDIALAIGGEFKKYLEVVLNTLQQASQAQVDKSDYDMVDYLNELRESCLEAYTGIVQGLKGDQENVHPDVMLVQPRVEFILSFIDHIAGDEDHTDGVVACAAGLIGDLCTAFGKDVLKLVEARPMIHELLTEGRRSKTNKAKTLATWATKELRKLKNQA
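FRET biosensor (snurportin 1 IBB flanked by EYFP and cerulean), 50 nM, with compound 5 min, then 0.125 microM importin beta in PBS, 1 mM DTT, 0.02% Tween-20, 0.1% BSA. CFP/YFP ratio read after 45 min at room temperature; pre-read flags interference.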
An asterisk follows results filed as active; u = inconclusive; x = not tested or not shown; & = joins results of further samples; [ ] = another dose, or the depositor's remark. This is a subset. The share of hits here may be higher or lower than overall.

Value order: GLA inh pH 4.5, miR-21 reporter, Rango release inh, Rango-impB inh
[1] Cc1ccc(C)c(S(=O)(=O)N2CCN(C(=O)[C@@H]3CCCN3C(=O)c3cccs3)CC2)c1
→ x, x, -10%, -2.8%
[2] Cc1cc(C)nc(NS(=O)(=O)c2ccc(NC(=O)Cc3ccccc3F)cc2)n1
→ x, -6%, -23%, -0.2%
[3] COC(C[C@@H](O)C[C@@H](O)COCc1ccccc1)OC
→ 0, -1%, 0%, -0.6%
[4] CC(=O)Nc1cccc(NC(=O)c2ccc(COc3ccccc3)cc2)c1
→ x, -72%, 1%, 0.1%
[5] Nc1nc(SCC(=O)N2CCN(c3ccc(F)cc3)CC2)n[nH]1
→ x, x, 38%, -2.1%
[6] O=C(NCCCN1CCOCC1)c1ccc([N+](=O)[O-])cc1[N+](=O)[O-]
→ -7, 5%, -8%, -0.7%
[7] CCN(CC1CCCN(CCc2cccc(OC)c2)C1)C(=O)c1ccc(COC)o1 (stereo not drawn)
→ x, -1%, -5%, -0.3%
[8] Cc1ccccc1CNC(=O)CCC(=O)N1CCOc2ccccc21
→ x, -1%, -3%, 1.6%
[9] Cc1c(-c2ccccc2)oc2c(C(=O)OCC(=O)Nc3ccc(F)cc3)cccc2c1=O
→ -6, 1%, -5%, -7.0%
[10] CCSc1nc(N)c(C#N)c(-c2ccccc2Cl)c1C#N
→ -7, -7%, -9%, 3.2%
[11] COc1ccc(CN2CC(C(=O)NCCCN3CCCC(C)C3)CC2=O)cc1 (stereo not drawn)
→ x, -2%, -3%, 4.9%
[12] COc1ccc(C(=O)N/C(=C\c2cn(C)c3ccccc23)C(=O)NCCCN2CCOCC2)cc1
→ x, 0%, u, 3.2%
[13] COc1ccc(NC(=O)CCNS(=O)(=O)c2ccc3c(c2)c(=O)n(C)c(=O)n3C)cc1
→ -13, 0%, 1%, 5.5%
[14] O=C(COC(=O)c1ccc(O)cc1O)NCCN1C(=O)CSC1=O
→ 5, -4%, 6%, 0.9%
[15] CCc1nnc(SCC(=O)NC2CCCC2)nc1CC
→ 1, 9%, 5%, 1.2%
[16] O=C(OCc1ccccc1)c1ccc2c(c1)-c1ccccc1C2=O
→ -10, -21%, -9%, -0.6%
[17] NC(=O)COc1cccc(/C=N/NC(=O)c2ccc(-n3cccc3)cc2)c1
→ 9, 1%, -4%, 1.2%
[18] CC1CN(CC(O)COCc2ccc3c(c2)OCO3)CC(C)O1 (stereo not drawn)
→ -12, -4%, 17%, 4.5%
[19] CCC(C)NC(=O)c1cc(Cl)c(NC(=O)C2=C(C)OCCS2)cc1OC (stereo not drawn)
→ x, -1%, 6%, 1.2%
[20] CC1CC(C)CN(CCCNC(=O)C2CCN(c3ncnc4c3sc3cccc(F)c34)CC2)C1 (stereo not drawn)
→ -4, -8%, x, x
[21] CCc1noc(C)c1C(=O)Nc1cccc(S(=O)(=O)N2CCCCCC2)c1
→ x, x, -9%, 1.1%
[22] COc1ccc(C(=O)NC(=S)N2CCCC2)cc1
→ x, 4%, 17%, 0.2%
[23] Cc1ccc(OCc2nnc(NC(=O)OCC(C)C)s2)cc1
→ -6, -6%, -13%, -0.1%
[24] O=C(COC(=O)c1nc(Cl)ccc1Cl)Nc1ccc(Cl)cn1
→ x, x, 6%, -1.1%
[25] CCC(C)[C@H](NC(=O)NCCCn1ccnc1)C(=O)OC (stereo partly drawn)
→ 0, -5%, -11%, -1.1%
[26] CCOC(=O)c1c(C)[nH]c(C)c1C(=O)COC(=O)c1cc2ccccc2cc1OC
→ -7, -20%, -22%, 11%
[27] N#Cc1nc(-c2cccc(Cl)c2)oc1NCc1cccnc1
→ -3, -12%, 3%, -0.6%
[28] COc1cc(OC)c2c(C)cc(=O)oc2c1C(CCN1CCN(c2ccccc2)CC1)c1ccc2c(c1)OCO2 (stereo not drawn)
→ -4, 24%, -11%, -3.9%
[29] C/C(=N\Nc1nc(-c2cc(C)ccc2C)cs1)c1cc2c(ccc3ccccc32)oc1=O
→ 3, 0%, u, u
[30] COc1ccc(-c2[nH]ncc2CN2CCC(O)(c3ccc(Cl)cc3)CC2)cc1
→ -9, 20%, 0%, -3.2%
[31] COc1ccc(C(=O)NC(=S)Nc2ccc(Cc3ccncc3)cc2)cc1
→ 4, 20%, 5%, -0.9%
[32] OCCC1CN(Cc2ccc(Oc3ncccn3)cc2)CCN1CCc1ccccc1 (stereo not drawn)
→ -5, -20%, 22%, 1.3%
[33] COc1ccc(C2(O)CCN(Cc3nnnn3Cc3ccc(C)cc3)CC2)cc1
→ 5, -3%, -7%, -0.6%
[34] O=C(C1=NN[C@@H]2C(=O)N(Cc3ccccc3)C(=O)[C@H]12)c1ccc(F)cc1
→ -8, 5%, 33%, 0.0%
[35] COc1ccc(OCC2NCCc3cc(OC)c(OC)cc32)cc1 (stereo not drawn)
→ x, -8%, 7%, -0.2%
[36] CC(C(=O)N1CCCCC1)N1C(=O)c2ccccc2C1=O (stereo not drawn)
→ 1, 2%, 0%, 0.3%
[37] O=C1c2nccnc2C(=O)N1Cc1ccccc1
→ x, x, u, -5.0%
[38] Brc1ccc(-c2noc(CCc3ccccc3)n2)cc1
→ x, x, 3%, -2.6%
[39] CC(C)C[C@H](NC(=O)NC(C)C)C(=O)O
→ -2, -5%, -4%, -5.8%
[40] COc1ccc(N2CCN(C(=O)COC(=O)c3c(-c4ccccc4)noc3C)CC2)cc1
→ x, x, -3%, 3.5%
[41] CC1(C)CC(C)(O)P(=O)(c2ccccc2)O1 (stereo not drawn)
→ -2, -7%, 1%, -7.7%
[42] O=C(NNC(=O)C12CC3CC(CC(Cl)(C3)C1)C2)c1csc(N2CCOCC2)n1
→ x, 3%, -3%, 0.0%
[43] Cc1cc([N+](=O)[O-])nn1CCCC(=O)Nc1cc(Oc2ccccc2)cc([N+](=O)[O-])c1
→ -5, -13%, 7%, 1.7%
[44] Cc1ccc(S(=O)(=O)N2CCC(C(=O)NCCCn3ccnc3)CC2)cc1
→ x, 0%, u, -3.0%
[45] COc1ccc2c(c1)OC[C@H]1[C@H]2N2C(=O)CNC(=O)[C@@]2(C)[C@H]1c1ccccc1
→ x, x, 10%, 0.4%
[46] CC1Cc2ccccc2N1C(=O)c1cnsn1 (stereo not drawn)
→ -9, -22%, -4%, -3.2%
[47] Cc1ccc(C)c(SCC(=O)OC/C(O)=C(\C#N)c2nc3ccccc3[nH]2)c1
→ 2, 11%, u, u
[48] COc1cccc(CNC(=O)CN2C(=O)COc3ccc(S(=O)(=O)N4CCCCC4)cc32)c1
→ x, -1%&-2%, -1%, -4.4%
[49] O=C(NCc1ccco1)/C(=C\C=C\c1ccccc1)NC(=O)c1ccccc1Br
→ 7, 8%, -10%, 2.6%
[50] COC(=O)C1C(=O)C2=C(CC1C)Nc1ccccc1NC2c1ccc(C)s1 (stereo not drawn)
→ -2, 3%, 14%, 3.1%
[51] CCC(=O)Nc1cccc(-c2cnc3ccccc3n2)c1
→ -3, -52%, -4%, -1.1%
[52] O=C(c1ccccc1[N+](=O)[O-])N1CC2C3C=CC(C3)C2C1 (stereo not drawn)
→ 1, -1%, 17%, -0.1%
[53] COc1ccc(S(=O)(=O)N(C)CC(=O)Nc2ccccc2C(F)(F)F)cc1Cl
→ 2, -4%, -1%, -0.4%
[54] O=c1c2ccccc2ncn1CCOCCOc1cccc(Br)c1
→ 3, -1%, -6%, 5.7%
[55] O=C(Nc1cccc(-c2cnc3ccccc3n2)c1)c1ccccc1
→ 8, -26%, -5%, 5.7%
[56] Cc1cccc(C(CC(=O)O)n2cccc2)c1 (stereo not drawn)
→ 6, -2%, 17%, -1.6%
[57] c1cc2c3c(cccc3c1)C(N1CCCCC1)=N2
→ 5, -11%, u, u
[58] CCOC(=O)c1ccc(CSc2nnc(C)n2N)o1
→ -5, -5%, 4%, 0.0%
[59] COc1ccc(-c2cc(=O)c3cc(O)ccc3o2)cc1
→ -2, -59%, 10%, -0.3%
[60] CCS(=O)(=O)N1CCN(C(=O)c2ccccc2)CC1
→ -1, -1%, -7%, -3.0%

(further entries)
Value order: GLA inh pH 4.5, miR-21 reporter, Rango release inh, Rango-impB inh
[61] COc1ccc(N=C(C)c2sc3ccccc3c2O)cc1
→ -6, -49%, u, u
[62] C=CCn1c(C)cc(-c2csc(N)n2)c1C
→ 5, -3%, -23%, u
[63] Cc1nc2c(cnn2-c2ccccc2Cl)c(=O)n1-c1ccc(C(C)C)cc1
→ -17, 8%&8%, 2%, -3.6%
[64] Fc1ccccc1-c1nc2ccccc2[nH]1
→ 0, -34%, -1%, -0.2%
[65] O=C1c2ccccc2NC(c2ccc(-c3ccc(Br)cc3)o2)N1O (stereo not drawn)
→ 5, 10%, -12%, 3.7%
[66] O=c1oc(-c2cccs2)nc2ccc(Br)cc12
→ -3, -3%, -2%, 11%
[67] Cc1cc2nc(-c3cccnc3SCC(=O)NCc3ccco3)[nH]c2cc1C
→ 6, -2%, -21%, -4.5%
[68] COc1ccc(CCNC(=O)C2CCN(S(=O)(=O)c3cc(OC)ccc3OC)CC2)cc1
→ 4, 11%, 14%, -1.8%
[69] CCOc1ccc(Nc2cc(C)nc3nc(C)nn23)cc1
→ 10, 3%, 5%, -2.1%
[70] COc1cc(C)ccc1OCC(=O)Nc1ccccc1N1CCOCC1
→ x, x, -6%, -4.5%
[71] O=C(/C=C/c1ccccc1)NCC(=O)N/N=C\c1cccnc1
→ 2, -2%, 8%, 0.0%
[72] COc1ccc(NC(=O)c2sccc2OS(=O)(=O)N(C)C)cc1
→ 2, 2%, 11%, 0.6%
[73] CN(C)CCN(C(=O)CN1C(=O)c2ccccc2C1=O)c1nc2cc3c(cc2s1)OCO3
→ x, -14%, -3%, -1.9%
[74] Cn1c(=O)n(C)c2cc(NC(=O)c3ccc(F)cc3)c(Br)cc21
→ x, -5%, -15%, -1.5%
[75] Cc1ccc(NC(=O)c2c(C(=O)Nc3ccccc3)sc3nc(C)cc(=O)n23)cc1
→ -7[21.1 µM], 1%&-14%, -4%, -0.3%
[76] CC(=O)Nc1cccc(NC(=O)CSc2nccn2Cc2ccccc2)c1
→ x, 8%&12%, -13%, -0.4%
[77] CN(C)CCCOc1cccc(Cl)c1
→ 10, -5%, -12%, 0.2%
[78] O=C(CN1CCC(n2nnc3cc(C(F)(F)F)ccc32)CC1)NCc1cccs1
→ -21, 18%, 2%, -2.7%
[79] O=C(c1ccc(N2CCCC2=O)cc1)N1CCN(c2ccc(Cl)cc2)CC1
→ x, 8%, u, u
[80] CC1C/C(=C/c2ccccn2)C(=O)/C(=C/c2ccccn2)C1 (stereo not drawn)
→ 0, u, -4%, -4.1%
[81] CN(C)/C=N/c1cc(=O)n(Cc2ccccc2)c(=O)n1C
→ 1&4, -11%, 11%, 0.2%
[82] O=C(O)CCn1c(SCCc2ccccc2)nc2ccccc21
→ x, x, 1%, -1.3%
[83] CCN(CC)c1ccc(S(=O)(=O)N2CCCCC2)cc1NC(=O)C1CSC2(C)CCC(=O)N12 (stereo not drawn)
→ x, x, -11%, u
[84] N#CC(OC(=O)c1ccccc1)c1ccccc1 (stereo not drawn)
→ x, x, 9%, 0.8%
[85] O=[N+]([O-])c1cc(S(=O)(=O)N2CCCCC2)ccc1NCCN1CCOCC1
→ -1, -2%, 1%, -0.4%
[86] CS(=O)(=O)c1ccc(Cl)c(NC(=O)CN2C(=O)C3CCCCC3C2=O)c1 (stereo not drawn)
→ x, x, -2%, -1.1%
[87] CCOC(=O)c1cc(NC(=O)N2CCCc3ccccc32)c(C)nc1C
→ 7, -6%, 7%, -0.4%
[88] CCOC(=O)CNC(=O)/C(=C\c1ccc(F)cc1)NC(=O)c1ccccc1
→ 5, -1%, 10%, 6.4%
[89] Cc1ccc(NC(=S)NCc2cccnc2)cc1
→ 5, -4%, -2%, -0.6%
[90] CN(CCCCOc1ccc(F)cc1)Cc1ccccc1
→ x, -1%, 11%, 3.4%

Compounds from the list above that contain a CF3 group, in the order listed:
Value order: GLA inh pH 4.5, miR-21 reporter, Rango release inh, Rango-impB inh
[53] COc1ccc(S(=O)(=O)N(C)CC(=O)Nc2ccccc2C(F)(F)F)cc1Cl
→ 2, -4%, -1%, -0.4%
[78] O=C(CN1CCC(n2nnc3cc(C(F)(F)F)ccc32)CC1)NCc1cccs1
→ -21, 18%, 2%, -2.7%
